# Screening results deposited in PubChem by Johns Hopkins Ion Channel Center.
# KCNQ2 enhance: KCNQ2 (rat) channel potentiation; O88943; CHO-K1 KCNQ2, FluxOR thallium flux fluorescence; stronger effect = higher value; B-score at 10 µM; 0.54% of 310,000 active; AID 2239;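 active means fluorescence ratio B-score at least 3 SD of library B-scores, with initial fluorescence B-score within 3 SD, cut at about 5.3 in these data; same plate scores as AID 2156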;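 further: B-score of peak minus minimum over baseline fluorescence ratio after K+ and Tl+ stimulus; positive B-score means potentiation of KCNQ2 with more thallium influx and brighter signal; only the inactives scoring about 0 or higher are listed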
# Target sequence (O88943 whole entry, looked up): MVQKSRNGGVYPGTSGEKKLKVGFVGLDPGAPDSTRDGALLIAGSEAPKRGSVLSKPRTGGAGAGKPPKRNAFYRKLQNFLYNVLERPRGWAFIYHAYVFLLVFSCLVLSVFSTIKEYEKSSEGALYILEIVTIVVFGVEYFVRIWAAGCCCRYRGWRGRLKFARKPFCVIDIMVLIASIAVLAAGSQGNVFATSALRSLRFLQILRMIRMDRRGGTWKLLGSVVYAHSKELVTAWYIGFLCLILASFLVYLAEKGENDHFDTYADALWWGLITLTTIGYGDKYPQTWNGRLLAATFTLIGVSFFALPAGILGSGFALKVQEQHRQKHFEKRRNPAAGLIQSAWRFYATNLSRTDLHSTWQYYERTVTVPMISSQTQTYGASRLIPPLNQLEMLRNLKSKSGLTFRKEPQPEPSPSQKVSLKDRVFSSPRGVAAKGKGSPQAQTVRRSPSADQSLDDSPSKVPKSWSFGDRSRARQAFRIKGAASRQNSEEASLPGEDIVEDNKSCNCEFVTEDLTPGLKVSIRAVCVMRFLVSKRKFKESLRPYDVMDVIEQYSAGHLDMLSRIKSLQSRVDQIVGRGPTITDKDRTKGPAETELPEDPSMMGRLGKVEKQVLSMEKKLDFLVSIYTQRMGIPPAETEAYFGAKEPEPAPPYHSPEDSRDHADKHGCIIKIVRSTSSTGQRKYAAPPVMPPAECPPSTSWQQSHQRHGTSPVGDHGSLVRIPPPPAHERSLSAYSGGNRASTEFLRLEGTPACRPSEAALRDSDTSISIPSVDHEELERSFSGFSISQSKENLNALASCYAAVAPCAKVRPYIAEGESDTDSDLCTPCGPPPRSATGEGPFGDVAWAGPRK
# KCNQ2 enhance baseline: further read-out of KCNQ2 enhance, marked with its call; B-score; compound at 10 µM; measured here: initial fluorescence intensity artifact check;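 brightness before thallium and not channel activity; 0 = typical well and far values either way flag optical interference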
# The depositor's hits bear a star.
compound,KCNQ2 enhance,KCNQ2 enhance baseline
COCCn1c(COc2cccc(OC)c2)nnc1SCC(=O)NC1CCCCC1,1.2,-0.64
NC(=O)CC(NC(=O)c1ccccc1)c1ccc(NC2CCN(Cc3ccccc3)CC2)c([N+](=O)[O-])c1 (configuration not stated),0.64,-0.76
Nc1nonc1C(=O)NCCNC(=O)c1ccccc1F,0.07,-0.07
COc1cccc2sc(NNC(=O)C3=COCCO3)nc12,0.54,-1.1
Cc1nc2cc(C(=O)O)ccc2s1,0.04,0.85
CN1C(=O)/C(=C/c2ccccc2F)Sc2ccc(C(=O)NCC3CCCO3)cc21 (configuration not stated),1.1,-1.3
O=C(Nc1ccc(Cl)cn1)Nc1ccc(Cl)cn1,1.6,0.26
Cc1cc(C)nc(NC(=O)CCN2C(=O)c3ccccc3S2(=O)=O)n1,1.3,-1.6
CCCn1nc(NC(=O)C(C)(C)C)c2cc3cc(OC)ccc3nc21,1.2,0.63
CCCNC(=O)c1ccc(S(=O)(=O)c2ccc(OC)cc2)c([N+](=O)[O-])c1,2.1,1.1
O=C(O)C1(P(=O)(c2ccccc2)c2ccccc2)CCC1,1.1,-0.02
CCN(CC)CCCn1c2c(c(SCC(=O)Nc3ccc(OC(F)(F)F)cc3)nc1=O)CCC2,1.4,1.2
COC(=O)c1ccccc1N(C)S(=O)(=O)c1cc2c(cc1C)OCC(=O)N2,0.01,-1.6
COC(=O)c1ccccc1S(=O)(=O)N1CCn2cccc2C1C (configuration not stated),1.2,-1.8
O=C(Nc1ccccc1F)C1CCCC1,0.07,-1.4
Cc1ccc2oc(=O)c3cnn(CC(=O)NC4CCN(Cc5ccccc5)CC4)c3c2c1,0.12,-0.51
COCCn1nnnc1SCC(=O)NCc1ccc2c(c1)OCO2,1.5,1.1
CCCC(=O)C1C(=O)CC(CC(C)SCC)CC1=O (configuration not stated),0.84,0.49
O=C(CCCc1ccccc1)Nc1ccccc1C(F)(F)F,1.7,0.15
Cc1nn(-c2ccccc2)c(C)c1/C=N/NC(=O)c1ccccc1O,0.09,0.17
O=C(c1cc(-c2cccnc2)nc2ccc(Br)cc12)N1CCN(c2ncccn2)CC1,0.03,-0.02
CCCCOC(=O)Nc1ccccc1C(N)=O,0.87,0.07
Cc1nn(C)c(C(=O)N/N=C/c2ccc(C(F)(F)F)cc2)c1[N+](=O)[O-],0.78,0.39
Cc1ccc(-n2ccnc(SCC(=O)NCCc3ccccc3)c2=O)cc1F,0.03,0.68
CCOc1ccc(-n2cc(C(=O)Nc3ccc(Cl)cn3)c3cc(OC)c(OC)cc3c2=O)cc1,0.77,-0.06
O=C(Nc1ccccc1F)c1cc2nc(C(F)F)cc(C(F)F)n2n1,0.47,-0.02
CCc1nn(CC(=O)N2CCC(C)CC2)c(=O)c2cccn12,0.06,0.34
Cc1nc(N)c(Br)c(C)c1Br,1.1,0.54
Nc1nnc(SCc2ccccc2F)n1-c1ccccc1,1,0.02
CCC(CC)C(=O)Nc1nnc(S(=O)(=O)Nc2ccc(OC)cc2)s1,0.01,0.43

# Whole records as entered above. Order of values: KCNQ2 enhance | KCNQ2 enhance baseline
# Results for `Cc1ccc2oc(=O)c3cnn(CC(=O)NC4CCN(Cc5ccccc5)CC4)c3c2c1` : 0.12 | -0.51
# Results for `Cc1nn(-c2ccccc2)c(C)c1/C=N/NC(=O)c1ccccc1O` : 0.09 | 0.17

# Additional results
compound,KCNQ2 enhance,KCNQ2 enhance baseline
COc1ccc(CCN(C)Cc2nc(-c3cnccn3)no2)cc1OC,0.18,-0.16
Cc1nc2sc(C(c3ccccc3)N3CCN(c4ccccc4F)CC3)c(O)n2n1 (configuration not stated),0.88,0.58
Cc1ccc(NC(=O)CCn2cnc3ccccc3c2=O)cc1Cl,0.17,0.32
CC1CCN(CCCNC(=O)C2CCC(CNS(=O)(=O)c3ccccc3)CC2)CC1 (configuration not stated),1.1,0.59
Cc1ccc(NC(=O)COC(=O)COc2cccc3c2OC(C)(C)C3)cc1C,1.3,-0.28
COc1ccccc1C(=O)NC(=O)COC(=O)CNC(=O)c1ccccc1,0.99,-0.42
CN(c1cccc(NC(=O)CN2C(=O)c3ccccc3S2(=O)=O)c1)S(C)(=O)=O,0.94,0.01
Cc1nn(-c2ccccc2)c(Cl)c1C(=O)NCC(C)C,1.9,1.7
O=C(Nc1ncccc1Cl)c1cccc(F)c1,0.36,0.2
O=C(O)c1ccccc1SSc1ccccc1C(=O)O,1,0.89
O=C(CO/N=C1\CCCc2nonc21)Nc1ccc(Br)cc1,1.1,-0.08
N#Cc1c(NC(=S)NC(=O)C2CCCC2)sc2c1CCCCC2,1.2,-0.86
CN1CCN(C(=O)C2=C[C@@H](c3ccccc3)C[C@@H](OCCCCO)O2)CC1,0.35,0.04
CCN(C(=O)Cn1nc(C)c([N+](=O)[O-])c1C)C1CCS(=O)(=O)C1 (configuration not stated),0.15,-1.4
Cc1nnc(N(Cc2ccccc2)C(=O)c2cnccn2)s1,1,2.5
Cc1ccc2c(c1)nnn2C1CCN(CC(=O)N(c2ccccc2)c2ccccc2)CC1,4.7,-2.3
CC(C)(Oc1ccc(Cl)cc1)C(=O)N1CCC(C(N)=O)CC1,2.2,0.85
O=C(OCc1nc2scc(-c3ccccc3)c2c(=O)[nH]1)c1ccco1,1.2,-0.79
O=C(O)/C=C/c1cn(Cc2ccccc2Cl)nc1-c1ccccc1,1.1,-0.31
Cc1cccc(CC(=O)Nc2cc(C)c3c(=O)oc4ccccc4c3n2)c1,0.9,0.67
O=C(CNCCc1ccccc1)Nc1ccc(C(=O)N2CCCCC2)cc1,1.5,-1.7
Cn1cccc1Cc1nnc(SCC(=O)NCCc2ccccc2)n1-c1ccc(F)cc1,0.65,-0.84
O=C(COC(=O)c1cc(Br)ccc1O)Nc1ccc2c(c1)OCCO2,0.54,-1.1
COc1ccc(/C=N/Nc2ncnc3sc4c(c23)CCCC4)cc1O,0.33,-0.65
COc1ccccc1N1CCN(/N=C/c2ccc(C(=O)O)cc2)CC1,1.6,1.1
CCOC(=O)c1cnc(-n2cc(C)cn2)nc1Nc1ccccc1OC,0.09,-0.71
Cc1nc(N2CCN(c3ccccc3)CC2)[nH]c(=O)c1Cc1ccccc1,1.6,-1.6
CCOC(=O)C1(CCc2ccccc2)CCN(C(=O)c2cc(C)nc(C)n2)CC1,0.56,-1.9
Cc1c(C(=O)NCCc2ccccc2)oc2ccc(S(=O)(=O)N3CCOCC3)cc12,0.68,-1.5
COc1ccccc1OCc1ccc(C(=O)N2CCN(C(=O)c3ccco3)CC2)cc1,2.5,-0.13

# 4 structures from above, arranged by formula weight, high to low:
compound,KCNQ2 enhance,KCNQ2 enhance baseline
CCOc1ccc(-n2cc(C(=O)Nc3ccc(Cl)cn3)c3cc(OC)c(OC)cc3c2=O)cc1,0.77,-0.06
COCCn1c(COc2cccc(OC)c2)nnc1SCC(=O)NC1CCCCC1,1.2,-0.64
Cc1ccc2c(c1)nnn2C1CCN(CC(=O)N(c2ccccc2)c2ccccc2)CC1,4.7,-2.3
O=C(O)c1ccccc1SSc1ccccc1C(=O)O,1,0.89

# Next results:
compound,KCNQ2 enhance,KCNQ2 enhance baseline
NC(=O)CCN(Cc1ccccc1)S(=O)(=O)c1ccccc1,0.06,0.98
CN(N=Nc1ccc([N+](=O)[O-])cc1)c1ccccc1,0.57,-1.1
O=C(c1ccccc1-c1ccccc1)N1CCCCC1,0.22,-0.01
Cc1ccc(C)c(N2CCN(CCCNC(=O)CCn3c(=O)c4cccn4c4cccnc43)CC2)c1,0.65,-0.45
CCOc1ccc(C(=O)N2CCc3ccccc32)cc1,0.02,-0.02
CCOc1ccc(OCCC(=O)OCC(=O)N2CCN(c3ccc(OC)cc3)CC2)cc1,1.6,1.6
Cc1ccc(OCc2nnc(NC(=O)c3cccnc3)s2)cc1,2.3,-0.67
COCCCn1c(SCC(=O)Nc2ccccc2F)nnc1-c1ccoc1C,1.2,-0.95
Cc1ccc(CNC(=O)COc2ccc(S(=O)(=O)N3CCCC3)cc2)cc1,1,-0.1
COc1cccc(NC(=O)c2cnc(SC)nc2)c1,0.05,-0.14
COC(=O)/C=C1/N/C(=N\c2nc(C)cc(C)n2)N(c2ccc(C)c(C)c2)C1=O,1.3,-1.1
Cc1ccc2oc(=O)c3cnn(CC(=O)N4CCc5ccccc5C4)c3c2c1,0.06,0.09
Cc1ccc(C(=O)N2CCN(c3ncnc4c3cnn4-c3ccccc3)CC2)cc1,1.4,-0.25
Cc1c(C(=O)N(Cc2ccccc2)C(C)C)cnn1-c1ccccc1,0.71,0.01
Cc1c(C(C)O)nnn1-c1nonc1N (configuration not stated),0.68,-1.2
CCOc1ccc(S(=O)(=O)N/N=C(\C)Cc2ccc(OC)cc2)cc1,1,-2.1
COc1cc(OC)c(OC)cc1CNC1CCCCCC1,0.01,1.8
O=C(Nc1ccccn1)c1sc2cccc(F)c2c1Cl,1.2,1.2
CC(C)(C)C1=Nn2c(nnc2C2CCCCC2)SC1,1.4,-0.32
C=CCNC(=O)C1CCN(c2cc(C)nc(-c3ccccc3)n2)CC1,0.64,-0.01
O=C(CCCCCn1c(=S)[nH]c2ccsc2c1=O)NC1CCCCC1,0.85,-0.45
Cc1[nH]nc2c1C(C(C)c1ccccc1)C(C#N)=C(N)O2 (configuration not stated),2.8,-1.6
CCN(CC(=O)Nc1ccc(OC)cc1)C(=O)Cc1cccs1,0.53,-0.45
C=C(C)CC(NCc1ccco1)c1ccc(OC)cc1 (configuration not stated),1.1,0.72
COc1ccc(S(=O)(=O)NC(CC(=O)NCc2ccc3c(c2)OCO3)c2ccco2)cc1 (configuration not stated),0.91,0.88
COc1cccc(NC(=O)COc2ccc(C(=S)N3CCN(C)CC3)cc2OC)c1,0.57,-2.4
Cc1c(C)c(C)c(C(=O)CCc2cccc(NC(=O)CCC(=O)O)c2)c(C)c1C,0.16,-0.72
COC(=O)Cc1ccc(NC(=O)c2ccc3c(c2)C(=O)N(Cc2cccnc2)C3=O)cc1,1.9,-3
Cn1nnnc1SCC(=O)Nc1ccccc1C(N)=O,4.8,-0.16
CCC(=O)N1CCc2cc(S(=O)(=O)CCC(=O)N3CCc4ccccc4C3)ccc21,0.58,0.61

# The list goes on:
compound,KCNQ2 enhance,KCNQ2 enhance baseline
C=CCC(O)(CC=C)CNC(=O)c1ccc(OC)c(OC2CCN(C(C)=O)CC2)c1,0.13,1.7
Nc1nc(N)c(N=Nc2ccc(C(=O)O)cc2)c(N)n1,0.62,0.61
CCCc1nn2c(=O)cc(COc3ccc(NC(=O)c4ccco4)cc3)nc2s1,0.2,0.73
CC1=CN2C(=N)/C(=C/c3ccc(Sc4ccc(C)cc4)o3)C(=O)N=C2S1,3.2,-0.99
O=C(c1ccc2ccccc2c1)C1CCCN(C(=O)c2cnccn2)C1 (configuration not stated),1.8,-1.3
Cc1cccc(C)c1NC(=O)CN(C)c1ccc(C(F)(F)F)cn1,2.7,-0.28
C/C(=N\NC(=O)c1ccc([N+](=O)[O-])cc1)c1cccc([N+](=O)[O-])c1,0.56,0.05
CNC(=O)/C(C#N)=C/c1c(N2CCN(C)CC2)nc2c(C)cccn2c1=O,0.13,1.2
C=CCN1C(=O)CN=C1Nc1cc(C)ccc1C,0.01,-0.26
COC(=O)c1cccc(Cn2c(Cl)c(/C=N/NC(=O)c3ccco3)sc2=O)c1,0.04,1.7
Cc1cc2oc(=O)c3c(c2cc1OCc1nn[nH]n1)CCCC3,1.2,2
C=C(c1cccc2ccccc12)P(=O)(O)O,0.02,0.09
O=C(NC1CCCc2c1cnn2-c1ccccc1F)c1ccccn1 (configuration not stated),0.74,-2.5
COc1ccc(OC)c(NC(=O)CSc2nncc3ccc(OC)c(OC)c23)c1,1.3,0.42
Cc1ccnc(NC(=O)COC(=O)C23CC4CC(CC(C4)C2)C3)n1,0.85,0.8
CC(C)(C)c1[nH]nc2c1C(c1ccco1)C(C#N)=C(N)O2 (configuration not stated),1.6,-1.4
N=C(N)N1CCN(Cc2ccccc2)CC1,0.31,1.1
Cc1nc2c3cnn(-c4ccc(C)c(C)c4)c3ncn2n1,1.3,-0.64
Cc1oncc1-c1csc(-c2ccccc2Cl)n1,2.3,0.58
CC(CN1CCN(C)CC1)OC(=O)c1ccc(Cl)cc1 (configuration not stated),2.4,-2
Cc1[nH]cnc1C(=O)N/N=C/c1c(Cl)cccc1Cl,1.4,-0.08
Cc1ccc(S(=O)(=O)Nc2cc(C)cn(Cc3ccc(F)cc3)c2=O)cc1,0.25,-0.84
COCC[N+]1(C)CCCCC1,0.11,-0.06
COc1ccc(N(Cc2ccccc2)S(=O)(=O)c2cccc(C(=O)NC3=NCCS3)c2)cc1,0.01,0.06
CN(c1ccccc1)c1cc(Br)nc(Br)c1,0.07,-0.42
COc1ccccc1C(=O)C1CCCN(C(=O)CCc2ccccn2)C1 (configuration not stated),0.13,0.05
CCOC(=O)C1CCCN(C(=O)Cn2nc(Cc3cccnc3)c3ccccc3c2=O)C1 (configuration not stated),0.52,0.87
CCOC(=O)c1cnc(SCC(=O)Nc2cc(OC)cc(OC)c2)nc1N,2,0.07
CCOCCCN(C)C1CCN(C(=O)c2oc3ccccc3c2NC(=O)Cc2ccc(F)cc2)CC1,0.65,1.1
Cc1ccc(C(=O)NCC(=O)OCCCOC(=O)CNC(=O)c2ccc(C)cc2)cc1,1.7,0.24
O=C(Nc1nc2ccc(F)cc2s1)C1CCCO1 (configuration not stated),0.19,0.09
C/C(=N\NC(=O)Cc1cc(=O)[nH][nH]1)c1cccc([N+](=O)[O-])c1,0.1,0.03

# The list is partial; rates above refer to the full screens.
